Bioassay records deposited in PubChem BioAssay by National Center for Advancing Translational Sciences (NCATS).
gsp agonist: qHTS for Agonist of gsp, the Etiologic Mutation Responsible for Fibrous Dysplasia/McCune-Albright Syndrome: qHTS | gsp mutant cells, cAMP HTRF, 30 min; control for the full effect not named in the record | Potency, µM (titrated, usually from 76.9 µM), inactives show top-dose activation (cAMP increase), usual class: activators | 0.13% of 340,000 active | AID 624287, 2012; active = well fitted activation curve with a large enough effect; inconclusive = small, poorly fitted or top-dose-only effect, or another doubt; inactive = no such curve, though single readings can be large or run the other way; cell line not stated here;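 also: phosphodiesterase inhibitor Ro 20-1724 added with compounds to block cAMP breakdown; potency is read from the fitted curve at half-maximal effect; nearly all actives have a fitted effect of over 60% in size; about a fifth of the inactives were tested at one dose only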
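Cells stably selected in G418 were plated at 2000/well, grown 16-24 hr, then given compounds in DMSO with the PDE inhibitor […] (300 uM solution added) for 30 min at 37C; cAMP was read by HTRF.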
Sfp inh: qHTS Assay for Inhibitors of Bacillus subtilis Sfp phosphopantetheinyl transferase (PPTase); 4'-phosphopantetheinyl transferase ffp (Bacillus subtilis), Q9F4F7; Biochemical Sfp PPTase activity, qHTS; Potency, µM, for the others: max response, negative = inhibition, hits mostly inhibitors; 3.5% of 310,000 active; active = well fitted inhibition curve with a large enough effect; inconclusive = small, poorly fitted or top-dose-only effect, or another doubt; inactive = no such curve, though single readings can be large or run the other way;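 also: the enzyme is Sfp with the accession as filed and its product quenches rhodamine fluorescence; potency is read from the fitted curve at half-maximal effect; 0% = enzyme reaction without inhibitor and -100% = no enzyme wells; top concentration of the series not given in the record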
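Sfp 15 nM + cpd, 15 min RT; start w/ rhodamine-CoA 5 uM, BHQ-2-YbbR 12.5 uM (final); 50 mM Hepes pH 7.6, 10 mM MgCl2, 0.01% NP-40, 0.01% BSA; read 525/598 nm at 0 and 30 min.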
TRPV1 potentiator: HTS Assay for Compounds that Act as Potentiators of the Vanilloid Receptor 1; Transient receptor potential cation channel subfamily V member 1 (Homo sapiens), Q8NER1; 0.02% of 320,000 active; potentiation, % at 8.33 µM; TRPV1-expressing cells, Fluo-8 calcium influx, capsaicin EC20 potentiation; host cell line not named in the record; control for the full effect not named in the record; AID 540277, 2011; active means potentiation above 80%; inconclusive means 30% to 80%; inactive means below 30%; also: 0% is about no effect
Target sequence (Q8NER1 whole entry, looked up): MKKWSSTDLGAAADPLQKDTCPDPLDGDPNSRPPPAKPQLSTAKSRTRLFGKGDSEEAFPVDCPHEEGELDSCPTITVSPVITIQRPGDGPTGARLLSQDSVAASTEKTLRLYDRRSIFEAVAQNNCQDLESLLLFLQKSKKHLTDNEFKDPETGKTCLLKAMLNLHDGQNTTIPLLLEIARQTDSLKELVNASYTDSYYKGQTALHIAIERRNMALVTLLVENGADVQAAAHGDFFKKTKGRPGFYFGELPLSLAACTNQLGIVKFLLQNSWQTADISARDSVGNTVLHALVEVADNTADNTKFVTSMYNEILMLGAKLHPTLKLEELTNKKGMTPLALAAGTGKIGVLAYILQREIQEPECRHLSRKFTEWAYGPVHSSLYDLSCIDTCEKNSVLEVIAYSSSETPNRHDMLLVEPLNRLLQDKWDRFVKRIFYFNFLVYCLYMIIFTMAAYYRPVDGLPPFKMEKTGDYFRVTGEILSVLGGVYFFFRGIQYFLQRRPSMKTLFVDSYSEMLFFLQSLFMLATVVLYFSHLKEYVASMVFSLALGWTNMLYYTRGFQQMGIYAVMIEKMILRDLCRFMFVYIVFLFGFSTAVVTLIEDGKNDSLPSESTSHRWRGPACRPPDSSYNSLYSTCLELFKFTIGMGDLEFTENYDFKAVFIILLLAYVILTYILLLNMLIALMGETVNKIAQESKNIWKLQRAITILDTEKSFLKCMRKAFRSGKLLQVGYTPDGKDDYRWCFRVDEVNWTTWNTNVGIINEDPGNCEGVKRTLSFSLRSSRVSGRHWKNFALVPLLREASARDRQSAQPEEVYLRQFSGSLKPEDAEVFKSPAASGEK
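Fluo-8 calcium influx in TRPV1-expressing cells, kinetic read (ex 480/em 520 nm). Compound added and read 3 min for agonist activity, followed by capsaicin at EC20 final and 2 min further read for enhancement.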
Menin MLL FP FL: qHTS Assay for Inhibitors Targeting the Menin-MLL Interaction in MLL Related Leukemias: Competition With Fluorescein Labeled MLL-derived Peptide; Fluorescence polarization, fluorescein-MLL peptide displacement from menin; FP activity change, % at 61.4 µM; 290,000 tested, under 10 active; AID 1766, 2009; inconclusive = falling polarisation curve, or a change in total fluorescence; inactive = total fluorescence flat and polarisation flat or rising; no compound was filed as active; the % refers to the polarisation; negative = inhibition;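 also: % of control where 0% means no effect; inhibitors lower the polarisation; unlabelled MLL peptide was the positive control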
gsp antagonist: qHTS for Antagonists of gsp, the Etiologic Mutation Responsible for Fibrous Dysplasia/McCune-Albright Syndrome: qHTS; gsp-mutant cells, cAMP HTRF, 30 min; control for the full effect not named in the record; Potency, µM (top dose mostly 76.9 µM), for inactives: at the top dose activity change, negative = inhibition, hits mostly inhibitors; 0.4% of 340,000 active; active = falling curve of any shape with a large fitted effect; inconclusive = falling curve, mostly with a smaller effect; inactive = flat or rising curve; cell line not stated here;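 also: intracellular cAMP measured with PDE inhibitor Ro 20-1724 present during compound exposure; potency is read from the fitted curve at half-maximal effect; % is scaled to controls: 0 for no effect and ±100 for the full control effect; nearly all actives have a fitted effect of over 65% in size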
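HTRF cAMP measurement after 30 min RT detection following 30 min, 37C compound treatment alongside […] (added as 300 uM solution) in G418-selected cells seeded at 2000/well and grown 16–24 h.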
ClpP mod: qHTS Assay for Activators of ClpP. ATP-dependent Clp protease proteolytic subunit (Bacillus subtilis (strain 168)), P80244. purified B. subtilis ClpP, FRET peptide cleavage, 20 min. 1.9% of 340,000 active. Potency, µM (doses to about 57.5 µM), for the others: at the top dose activity change, negative = active; active = well fitted falling curve with a large enough effect; inconclusive = small, poorly fitted or top-dose-only effect; inactive = no such curve, though single readings can be large or run the other way; also: potency is read from the fitted curve at half-maximal effect; the source files actives as falling curves though it sought activators and does not explain the sign; nearly all actives have a fitted effect of over 65% in size; many hits overshoot -100%
Target sequence (P80244 whole entry, looked up): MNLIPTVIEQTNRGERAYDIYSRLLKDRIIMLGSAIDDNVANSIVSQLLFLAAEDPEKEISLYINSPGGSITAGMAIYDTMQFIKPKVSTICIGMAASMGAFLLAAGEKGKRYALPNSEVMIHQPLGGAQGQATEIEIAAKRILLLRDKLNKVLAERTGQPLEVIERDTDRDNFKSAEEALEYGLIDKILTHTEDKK
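Purified B. subtilis ClpP, 10 microg/mL final in Tris/HCl pH8 with KCl, BSA, glycerol and Tween-20, cleaved an Abz/nitrotyrosine-quenched decapeptide. Fluorescence (ex 320, em 430) was read at 0 and 20 min at room temperature. Delta was normalized to 5.8 microM ADEP and DMSO/no-enzyme controls.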
D2 potentiator: Beta-Arrestin HTS for Positive Allosteric Modulators of the Human D2 Dopamine Receptor: Potentiators; D(2) dopamine receptor (Homo sapiens), P14416; DiscoveRx D2 beta-arrestin cells, luminescence, 90 min; 100% = 57 uM dopamine signal; potentiation, % (test concentration not listed); 0.23% of 360,000 active; AID 624464, 2012; active = potentiation of 50% or more; inconclusive = 30% to 50%; inactive = 30% or less;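 also: compound concentration not given in the record; tested on top of an EC20 dose of dopamine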
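D2 cells co-treated with compound plus 50 nM dopamine (EC20) for 90 min at 37 deg C to detect potentiation. Beta-arrestin recruitment was read as enzyme-fragment luminescence after 1 h at ambient temperature. Full response was set by 57 uM dopamine.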
An asterisk follows results filed as active; u = inconclusive; x = not tested or not shown; [ ] = dose if it differs, or a comment.

The first four entries, ahead of the listing:
SMILES	gsp agonist	Sfp inh	TRPV1 potentiator	Menin MLL FP FL	gsp antagonist	ClpP mod	D2 potentiator
COc1ccc(S(=O)(=O)N2CCCC2)cc1C(=O)O	0%	19%	u	-0.2	-4%	-3.7%	-16
O=[N+]([O-])c1ccc2nc(NCCCO)nc(-c3ccccc3)c2c1	-1%	u	-12	15	15%	0.8%	6
COc1cc(C=O)ccc1Oc1ccc(S(=O)(=O)N2CCOCC2)cc1[N+](=O)[O-]	20%[15.4 µM]	x	x	x	-11%	-1.6%	6
COc1ccc(NC(=O)N(C)C[C@H]2Oc3c(NC(=O)C4CC4)cccc3C(=O)N([C@H](C)CO)C[C@@H]2C)cc1	x	x	x	x	4%	1.3%	-5

Main list, repeating the preview:
SMILES	gsp agonist	Sfp inh	TRPV1 potentiator	Menin MLL FP FL	gsp antagonist	ClpP mod	D2 potentiator
COc1ccc(S(=O)(=O)N2CCCC2)cc1C(=O)O	0%	19%	u	-0.2	-4%	-3.7%	-16
O=[N+]([O-])c1ccc2nc(NCCCO)nc(-c3ccccc3)c2c1	-1%	u	-12	15	15%	0.8%	6
COc1cc(C=O)ccc1Oc1ccc(S(=O)(=O)N2CCOCC2)cc1[N+](=O)[O-]	20%[15.4 µM]	x	x	x	-11%	-1.6%	6
COc1ccc(NC(=O)N(C)C[C@H]2Oc3c(NC(=O)C4CC4)cccc3C(=O)N([C@H](C)CO)C[C@@H]2C)cc1	x	x	x	x	4%	1.3%	-5
CCOC(=O)CC1C(=O)NCCN1C(=O)c1ccc(Cl)c(Cl)c1 (stereo not given)	16%	11%	-3	1.7	0%	x	-5
O=C(CSc1nc2c(c(=O)n1-c1ccc(Br)cc1)SCC2)Nc1nccs1	13%	-25%	1	2.0	1%	1.0%	-40
Fc1ccc(NC(=S)Nc2ccc3nccnc3c2)cc1	-45%[inhibitor]	u	-7	u	0%	-1.9%	3
COc1cccc(/C=C/C(=O)NNC(=O)CCN2CCN(Cc3ccccc3)CC2)c1	1%	22%	1	1.8	-3%	4.5%	-24
COc1ccc(N2CCN(CCCNC(=O)CC3Oc4ccc(C)cc4NC3=O)CC2)cc1 (stereo not given)	-55%[inhibitor]	-4%	19	11	5%	-8.7%	-13
CC(C)c1ccc(CNC(=O)C(=O)Nc2nccs2)cc1	-4%[15.4 µM]	-1%	6	-3.1	8%	x	-11
NC(=O)c1nnn(-c2ccc([N+](=O)[O-])cc2)c1-c1ccccc1	10%	-1%	-12	-2.1	-9%	x	4
CCOC(=O)C1CCCN(C2CCN(Cc3nc(-c4ccccc4)no3)CC2)C1 (stereo not given)	21%	2%	-4	0.6	12%	x	-5
O=C(Cn1[nH]c(=O)c2ccccc2c1=O)OCC(=O)c1ccc(Br)cc1	-10%[15.4 µM]	x	-4	x	-15%	x	0
CCOc1nc(-c2ccccc2Cl)ccc1C#N	2%	-9%	18	1.7	-11%	-1.0%	-19
CCCCNC(=O)c1cc(C)no1	-72%[inhibitor]	11%	14	-4.1	6%	0.9%	-3
Cc1ccccc1CN1CCN(CC2CC3C=CC2C3)CC1 (stereo not given)	-38%[inhibitor]	79µM*	-8	u	16%	-1.4%	-29
CC1(C)CC(=O)C2=C(C1)Oc1nc3ccccc3cc1C2C(C#N)C#N (stereo not given)	-11%	-26%	-12	4.3	3%	-4.5%	-14
Cc1onc(-c2ccccc2)c1C(=O)N1CCN(c2ncccn2)CC1	-24%	-6%	13	3.1	5%	x	-1
Cc1ccccc1S(=O)(=O)NNC(=O)C(=O)NNc1ccccn1	4%	19%	-14	0.5	-6%	1.5%	0
CCOC(=O)CNC(=O)CSc1nnc(-c2c[nH]c3ccccc23)n1CC	2%	9%	9	4.7	3%	-1.2%	-12
O=C(COC(=O)CC12CC3CC(CC(C3)C1)C2)Nc1ncc(Cl)cc1Cl	u	4%	-23	2.1	-13%	-3.1%	-6
Cc1cc(C)n2nc(CCc3ccccc3)nc2n1	u	10%	30	0.8	5%	-1.5%	-8
O=C(NC1CCCCC1)C(c1ccccc1)N(C(=O)c1csnn1)C1CC1 (stereo not given)	u	7%	18	7.0	5%	x	-2
CN(Cc1cnccn1)C(=O)CC1C(=O)NCCN1Cc1cccc(F)c1 (stereo not given)	-44%[inhibitor]	-1%	-10	x	3%	-18%	-12
Cc1ccc(S(=O)(=O)Nc2ccc3c(c2)C(=O)N([C@H](C)CO)C[C@H](C)[C@@H](CN(C)C(=O)NC2CCCCC2)OCCCC[C@@H](C)O3)cc1	-10%	x	x	x	x	1.3%	3
O=C(NCCCNC(=O)c1ccc(-c2cc(Cl)ccc2Cl)o1)c1cnccn1	2%	6%	-3	x	11%	-1.2%	-31
COc1ccc2c(c1)cc(C(=O)N/N=C/c1c(O)c(C(=O)O)cc3ccccc13)n2C	u	-9%	-3	u	1%	-8.2%	-3
O=C(Cc1ccc(-c2ccccc2)cc1)NNC(=S)NCc1ccco1	10%[15.4 µM]	24%	u	3.3	0%	x	-4
c1ccc(CC2CCN(C3=Nc4cccc5cccc3c45)CC2)cc1	4%	u	12	u	u	-5.0%	-34
CC(C)(C)NC(=O)NC(=O)COC(=O)CNC(=O)c1cc(Cl)cc([N+](=O)[O-])c1	-44%[inhibitor]	15%	0	1.1	-15%	1.3%	2
O=C(N/N=C/c1cc2c(cc1[N+](=O)[O-])OCO2)c1cccnc1	2%[15.4 µM]	-16%	-5	3.4	-3%	x	0
CN1C(C)(C)CC(=NO)CC1(C)C	-28%	x	x	x	5%	x	-2
NC(=S)Nc1ccc(Cl)cc1Cl	-14%[15.4 µM]	7%	-9	3.5	13%	1.2%	-13
O=C(Nc1nc2ccc(F)cc2s1)Oc1ccccc1	u	12%	-3	0.5	6%	x	-3
Cc1ccc(NC(=O)COc2ccc(CCO)cc2-n2nc3ccccc3n2)cc1C	17%	-8%	-16	3.0	-17%	24%	3
CN(C)c1ccc(CNn2cnnc2SCc2ccccc2F)cc1	-5%	2%	22	-0.4	5%	-2.1%	-4

Quoted from above for reference:
SMILES	gsp agonist	Sfp inh	TRPV1 potentiator	Menin MLL FP FL	gsp antagonist	ClpP mod	D2 potentiator
Cc1ccc(S(=O)(=O)Nc2ccc3c(c2)C(=O)N([C@H](C)CO)C[C@H](C)[C@@H](CN(C)C(=O)NC2CCCCC2)OCCCC[C@@H](C)O3)cc1	-10%	x	x	x	x	1.3%	3
O=C(NCCCNC(=O)c1ccc(-c2cc(Cl)ccc2Cl)o1)c1cnccn1	2%	6%	-3	x	11%	-1.2%	-31
COc1ccc2c(c1)cc(C(=O)N/N=C/c1c(O)c(C(=O)O)cc3ccccc13)n2C	u	-9%	-3	u	1%	-8.2%	-3

Continuation.
SMILES	gsp agonist	Sfp inh	TRPV1 potentiator	Menin MLL FP FL	gsp antagonist	ClpP mod	D2 potentiator
Cc1c(C(=O)Nc2ccc(OC(F)(F)F)cc2)sc2nc3n(c(=O)c12)CCC3	10%	12%	-57	14	-8%	41%	5
Cc1ccc(C)n1-c1ccc(C(=O)N2CCOCC2)cc1	22%	1%	-15	3.1	0%	-0.4%	-12
CCCCN(C(=O)c1cccc(S(=O)(=O)N2CCN(Cc3ccccc3)CC2)c1)c1ccccc1	2%	3%	-6	1.9	-21%	-1.9%	-12
COc1ccnc2c1c(=O)n(Cc1ccc(F)cc1)c(=O)n2C	-7%	4%	-6	4.5	4%	-3.6%	-11
O=C(Nc1cc(C(F)(F)F)ccc1Cl)c1cccnc1	u	12%	3	1.2	8%	x	-3
O=C(CCN1CCCCO1)N1CCCC(Nc2ccc(F)c(F)c2)C1 (stereo not given)	-5%[15.4 µM]	1%	-17	x	10%	-4.1%	-22
Cc1ccc(CNS(=O)(=O)NCc2cccs2)cc1	-39%[inhibitor]	-3%	9	7.4	4%	-2.3%	-9
Cc1ccn2c(C(=O)NN=C3CCN(C)CC3)c(C)nc2c1	-2%[15.4 µM]	12%	-6	-3.6	-4%	x	9
Cc1ccc(NC(=O)Nn2cnnc2)c(C)c1	u	5%	7	-1.4	-4%	-4.7%	-11
CCOC(=O)c1cc(C)n(-c2ccccc2)c1C	25%[15.4 µM]	5%	-7	22	4%	x	-9
Cc1ccc(C(C)NC(=O)C2CCCC2)c(C)c1 (stereo not given)	-13%	34%[activator]	-22	0.5	6%	1.9%	1
Cc1ccc(C(=O)N/N=C\c2cc(Br)c(Br)o2)cn1	5%[15.4 µM]	-20%	-15	u	3%	x	-4
CCOC(=O)c1ccc(Nc2ncnc3nc[nH]c23)cc1	-28%	11%	-7	-0.8	1%	-23%	-14
CC1CCCCN1C(=O)COC(=O)c1ccc(=O)n(Cc2ccccc2)n1 (stereo not given)	24%[15.4 µM]	x	u	x	2%	x	-68
CCOC(=O)N1CCC(NC(=O)CCN2C(=O)C3C4C=CC(C4)C3C2=O)CC1 (stereo not given)	-11%	14%	-3	0.1	2%[15.4 µM]	-0.8%	-10
COc1ccc(CN2C(=O)CCC2(C)C(=O)NC2CCCCC2)c(OC)c1 (stereo not given)	15%	3%	14	-2.1	9%	0.9%	-7
CCOC(=O)c1sc2nccc(N(C)C)c2c1N=CN(C)C	6%	13%	-13	0.9	-5%	-17%	-3
O=C(CCCn1c(=O)c2sccc2n(Cc2cc(=O)n3ccccc3n2)c1=O)NCc1ccco1	21%	9%	-6	-0.8	2%	-14%	-10
CC(O)CNc1nc(NCc2ccccc2)c2cnn(C)c2n1 (stereo not given)	u	-7%	4	-4.0	5%	-9.9%	-7
CCc1cccc2c(C(=O)CN3C(=O)NC4(CCc5ccccc54)C3=O)c[nH]c12 (stereo not given)	-5%[15.4 µM]	x	-1	x	-11%	-2.9%	-4
